Env fusion inh: inhibitors of HIV-1 Env-driven cell-cell fusion, primary screen, HeLa-JRFL effector, CEM21 target cells, luciferase; inhibition, % at 12.3 µM; 360,000 compounds, 1.1% hits;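 active = mean replicate inhibition score of at least 50 and every replicate individually at or above 50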;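 note: 0% = plate neutral controls and 100% = maraviroc near 300 nM; one replicate is shown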
MT1-MMP act inh: blockers of MT1-MMP proenzyme processing, primary screen, HT1080 RFP-PRO-GFP cells, GFP/RFP fluorescence. GFP/RFP ratio change, % at 20 µM. GFP/RFP ratio fluorescence, overnight; percent of plate control window, DMSO zero. AID 651647, 2012. Matrix metalloproteinase-14 (Homo sapiens), P50281. 360,000 compounds, 0.061% hits;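 active = GFP/RFP ratio change of at least 30% with cell ATP level not reduced by more than half and red fluorescence within 50% of control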; note: strong numbers were not always called active
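Test system: HT1080 cells expressing an RFP-PRO-GFP fluorescent reporter construct / Compound dosing: single-point 20 µM compound, 1% DMSO / Schedule: cells overnight before dosing, compound overnight, 37 °C, 5% CO2 / Evaluation: GFP/RFP fluorescence ratio / Control set: DMSO and RFP-L50D-GFP cell wells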
MT1-MMP act inh RFP: recorded beside MT1-MMP act inh, whose call it bears; RFP signal change, %; measured here: RFP expression control read;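 0 = vehicle wells; hits needed this value within 50% of zero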
The depositor's hits bear a star; i = inactive; [ ] = dose if it differs, or a comment.

SMILES	Env fusion inh	MT1-MMP act inh	MT1-MMP act inh RFP
O=C1NC[C@H](CCCCN2C[C@H](Cc3ccc(O)cc3)N(CC3CCCCC3)C(=O)C2=O)N(Cc2ccccc2)C1=O	3	2	3
CCOC(=O)N1CCN(C(=O)C[C@@H]2C[C@@]3(C(=O)OC)CCCCC=C3N(Cc3cccc4ccccc34)C2=O)CC1	12	7	-6
CCOC(=O)c1ccc(-c2ccc(N3C(c4ccsc4)=Cc4ccc(F)cc4C3c3c[nH]c4ccc(C#N)cc34)cc2)cc1F (stereo not given)	21	-4	1
CC(C)(C)OC(=O)N1CCC[C@@H]1C(=O)N1CCC[C@@H]1C(=O)NCc1ccccc1Cl	16	2	5
O=C(C[C@H]1CC[C@@H](NS(=O)(=O)c2ccccc2)[C@@H](CO)O1)NCc1ccc(Cl)c(Cl)c1	-16	3	-10
Nc1nc(SCC(=O)N2N=C3/C(=C\c4ccco4)CCCC3C2c2ccco2)n[nH]1 (stereo not given)	5	-1	-2
CCc1ccc(NC(=O)C(C)OC(=O)Cc2cc(OC)c(OC)c(OC)c2)cc1 (stereo not given)	2	4	-3
CCOC(=O)C1=NOC2(C1)C(=O)Nc1c(Cl)cccc12 (stereo not given)	-16	2	2
CCCCc1c(-c2ccccc2OC)ncn1Cc1ccc(-c2ccccc2)cc1	17	17	-29
CCOC(=O)[C@]12CCC=C1N(Cc1ccccc1)C(=O)[C@H](CC(=O)NCc1ccc(C)o1)C2	36	1	6
COC(=O)C[C@H]1C=C[C@H](NC(=O)C2CCOCC2)[C@@H](CO)O1	11	-1	2
COC1C(OC(=O)/C=C/C=C/C=C/C=C/C(=O)O)CCC2(CO2)C1C1(C)OC1CC=C(C)C (stereo not given) (tested in a mixture with another compound)	-8	-6	-2
CCNc1ncnc2[nH]ncc12	24	1	0
Cc1ccc(S(=O)(=O)N2CCC(=O)N([C@H](CO)Cc3ccccc3)CC2)cc1	7	3	0
CCOC(=O)C1=CCC(c2ccc(N(CC)CC)cc2)N(S(=O)(=O)c2ccc(C)cc2)C1c1ccc([N+](=O)[O-])cc1 (stereo not given)	12	-4	-13
Cn1nc(SCc2ccccc2)c(=O)n(C(c2ccccc2)c2ccccc2)c1=O	16	5	-3
O=C1Cc2ccccc2C(=O)N1Nc1ccccc1	14	-2	-5
CN1CCc2c(sc3c2c(=O)n(-c2ccccc2)c2nnc(SCc4ccc(F)cc4)n32)C1	19	-5	3
CC(=O)/C=C1\OCc2cc(OCc3ccccc3)ccc21	-14	5	-8
O=[N+]([O-])c1ccccc1S(=O)NCc1c(Cl)cccc1Cl (stereo not given)	7	1	3
CCOC(=O)c1c(SCCN2CCCC2)n(-c2ccccc2)c(=S)n(-c2ccccc2)c1=O	-282	1	1
COc1cc2c[n+](C)c3c4ccccc4ccc3c2cc1OC	36	9	-8
CCOC(=O)[C@]12CCC=C1N(Cc1ccc3c(c1)OCO3)C(=O)[C@H](CC(=O)N1CCOCC1)C2	1	2	2
Cc1ccc(S(=O)(=O)N2CC3C(=O)CC(c4ccccc4)N(S(=O)(=O)c4ccc(C)cc4)C3CC2c2cccc(Cl)c2)cc1 (stereo not given)	42	2	0
Cc1cc(N2CCN(C(C(=O)NC3CCCC3)c3ccco3)CC2)c2ccccc2n1 (stereo not given)	-1	1	3

More compounds
SMILES	Env fusion inh	MT1-MMP act inh	MT1-MMP act inh RFP
Cc1cc2c(cc1C)-n1nnnc1C(N1CCN(C(=O)OCc3ccccc3)CC1)C(=O)N2 (stereo not given)	38	-2	-21
CCOC(=O)[C@]12CCC=C1N(Cc1ccccc1)C(=O)[C@H](CC(=O)N1CCSCC1)C2	-77	6	10
O=C(NC1CCCCC1)C1c2ccccc2OCC(=O)N1CC(F)(F)F (stereo not given)	-4	3	2
COC(=O)[C@]12CCCCC=C1N(Cc1ccc3c(c1)OCO3)C(=O)[C@H](CC(=O)NCCc1ccccc1OC)C2	-28	0	-10
O=C(O)c1cc2ccc(O)cc2oc1=O	18	6	4
O=c1[nH]c2cc3ccccc3cc2nc1-c1nnnn1Cc1ccccc1	-74	-11	-5
CCCCNC(=O)c1cc(-c2ccccc2)sc1N	-16	-5	-5
COc1ccc(/C=C2/CCCc3ccccc3C2=O)cc1	-3	2	-8
CCn1cc(CN2CCC(C(=O)Nc3ccc(Oc4ccccc4F)cc3)CC2)cn1	19	3	-6
CC1NS(=O)(=O)c2cc([N+](=O)[O-])ccc21 (stereo not given)	-1	-1	0
COCCCNC(=O)C[C@@H]1C[C@@]2(C(=O)OC)CC(C)(C)CC=C2N(Cc2ccco2)C1=O	4	-3	0
O=c1nc(Oc2ccccc2)nc2ncccn12	6	-4	7
COC(=O)[C@@]1(Cc2ccc(F)cc2)[C@H]2c3cc(C(=O)N(C)C)n(CCc4c[nH]c5ccc(OC)cc45)c3C[C@H]2CN1C(=O)c1ccccc1	3	-13	-13
C[N+](C)(C)CCNC(=O)c1ccccc1	-18	2	5
Cc1nc(-[n+]2nc(-c3ccncc3)nn2-c2ccccc2)sc1C	3	3	0
CCCCn1nnnc1C(c1ccccc1)N1CCN(c2ccccc2OC)CC1 (stereo not given)	7	-3	0
CCOC(=O)N1CCN(C(=O)C[C@@H]2C[C@@]3(C(=O)OCC)CCCC=C3N(CCc3ccc(OC)c(OC)c3)C2=O)CC1	-3	5	7
C=CCC[C@@H](CCCCC)OC(=O)/C=C/[C@H](O)[C@@H](O)C[C@@H](O)CC=C	-35	0	-8
CC(C)CN1CC(C)C(=O)NC1=S (stereo not given)	-15	2	1
CN(C)c1ccc(C(=O)C(=O)N2CCN(c3ccccc3)CC2)cc1	-18	-3	4
O=C1CC(c2ccccc2)(c2ccccc2)c2ccccc21	-2	2	-1
O=C(NCc1ccccc1)C(c1ccc(-c2ccccc2)cc1)N1CCN(C(=O)C2CCCO2)CC1 (stereo not given)	-10	-3	-4
N#CC1C=Cc2c(ccc3ccccc23)N1C(=O)c1ccccc1 (stereo not given)	36	11	-3
COc1ccc(C(C(=O)NC2CCCC2)n2c(-c3cccs3)nc3ccccc32)cc1 (stereo not given)	-15	6	-1
CC(=O)c1ccc(-c2c(CCO)sc3ccccc23)cc1	-3	-2	-4

Next section.
SMILES	Env fusion inh	MT1-MMP act inh	MT1-MMP act inh RFP
O=C(O)c1ccc(C=NN=Cc2ccco2)cc1	-3	-1	5
Cc1cccc(NC(=O)CN(CC2CCCO2)C(=O)c2cc3ccccc3o2)c1C (stereo not given)	-30	-6	0
COC(=O)[C@@]12C[C@@H](CC(=O)N3CCN(C(=O)c4ccco4)CC3)C(=O)N(CCc3ccc(OC)c(OC)c3)C1=CCC(C)(C)C2	0	0	4
O=C(CCSCCC(=O)NN=Cc1ccccc1O)NN=Cc1ccccc1O	-17	3	1
O=[N+]([O-])c1ccc(NS(=O)(=O)c2ccc(Cl)c(Cl)c2)cc1	-7	4	-34
CCN(CC)CCCN1C(=O)C(=O)/C(=C(/O)c2c(C)nc3ccccn23)C1c1ccc(C)o1 (stereo not given)	-8	-2	0
COc1ccc(-c2ccc3c(c2)c(Sc2ccccc2)c(-c2ccccc2)n3C)cc1	-4	4	4
CN(C)C(=O)c1ccc(SC(=S)NCc2ccccc2)cc1	24	-2	4
Cc1ccc(Cn2cc(CN3CC(N4CCN(Cc5ccccc5F)CC4)CS3(=O)=O)nn2)cc1 (stereo not given)	19	5	-10
Cc1ccc(C=NNc2ccc([N+](=O)[O-])cn2)cc1	i	-9	-9
COc1ccc(-c2ccc(CN3C(C)C(=O)N(Cc4cn(CCC5OCCO5)nn4)CCS3(=O)=O)cc2)cc1OC (stereo not given)	6	-1	-1
COC(=O)[C@]12CCCCC=C1N(Cc1ccccc1)C(=O)[C@H](CC(=O)N1CCN(C(=O)c3ccco3)CC1)C2	-3	4	0
N#Cc1ccc(CN2CCN(C(=O)CNC(=O)Cc3ccccc3)CC2)cc1	-8	0	-3
CCOC(=O)[C@]12CCC=C1N(Cc1ccco1)C(=O)[C@H](CC(=O)N1CCCC1)C2	-3	-1	0
O=C1Nc2ccccc2C(=O)N(C2CCCC2)C1C(=O)NC1CC1 (stereo not given)	5	-3	-1
C=CCC[C@H](CCCCC)OC(=O)/C=C/[C@H](O)[C@@H](O)C[C@@H](O)CC=C	14	-4	-11
O=C1NC(c2cccc(OCc3ccccc3)c2)Nc2ccccc21 (stereo not given)	-276	15	-18
O=C1c2cccc(NCCCNCCO)c2C(=O)c2cccc(NCCCNCCO)c21	-76	68*	50*
Cc1ccccc1CN1C(=O)c2ccccc2C1c1nnnn1C(C)C (stereo not given)	12	0	4
COCCNC(=O)C1CCCN(Cc2ccc(C)cc2)CC1 (stereo not given)	-17	1	6
COc1ccc(NC(=O)C2c3ccccc3OCC(=O)N2C2CC2)cc1 (stereo not given)	19	5	5
O=C(NCc1ccccc1)C(c1ccncc1)n1c(=O)c(-c2ccccc2)nc2ccccc21 (stereo not given)	-20	-6	0
C/C(Nc1ccc(Cl)cc1)=C1/CCOC1=O	-10	8	0
ClCCn1c(CCl)nc2ccc(Cl)cc21	3	0	0
CCOC(=O)[C@]12CCC=C1N(Cc1ccco1)C(=O)[C@H](CC(=O)NCc1ccc(OC)c(OC)c1)C2	13	1	0

Limited to Env fusion inh and MT1-MMP act inh RFP, for 2 of the compounds above:
Compound	Env fusion inh	MT1-MMP act inh RFP
CCOC(=O)[C@]12CCC=C1N(Cc1ccco1)C(=O)[C@H](CC(=O)N1CCCC1)C2	-3	0
O=C(O)c1ccc(C=NN=Cc2ccco2)cc1	-3	5

(list continues)
SMILES	Env fusion inh	MT1-MMP act inh	MT1-MMP act inh RFP
O=C(NCc1ccccc1)C(c1ccc(C(F)(F)F)cc1)n1c(=O)c(-c2cc3ccccc3[nH]2)nc2ccccc21 (stereo not given)	-22	-9	-13
CC(C)(C)C1CCN2CCC[C@](c3ccccc3)(C1)[C@@]21CO1 (stereo not given in full)	-79	2	2
CC(=O)Oc1ccc(OC(C)=O)c2c1C1C=CC2CC1	3	1	4
CCS(=O)(=O)N1Cc2cc(C(=O)NCCOC)nc(-c3cccc(-c4ccncc4)c3)c2[C@@H]1CCO	8[16.7 µM]	2	1
COC1=CC(=O)OC(c2cccc(C#N)c2)C1 (stereo not given)	-39	6	4
CC1(Cc2ccc(F)cc2)C(=O)Nc2ccc(S(=O)(=O)NC3CCCCC3)cc21 (stereo not given)	46	-5	-12
O=C(Nc1cc(S(=O)(=O)N2CCOCC2)ccc1N1CCCC1)c1cc(F)c(F)cc1Cl	-4	3	1
CCCCNC(=O)C1C(c2ccc(C(F)(F)F)cc2)=Nc2ccccc2N1C(C)=O (stereo not given)	9	5	0
Cc1ccc2nc(-c3ccc(Cl)cc3)c(Cc3cccc(Cl)c3)n2c1	-19	-5	-11
Cc1cccc(C)c1NC(=O)C1C(c2ccccc2)=Nc2ccccc2N1C(=O)c1cnccn1 (stereo not given)	64*	-6	3
COc1ccc(Cl)cc1CC=NNC(=O)c1ccncc1	16	7	6

Molecules above that contain a furan ring, fused or not, in the order listed:
SMILES	Env fusion inh	MT1-MMP act inh	MT1-MMP act inh RFP
Nc1nc(SCC(=O)N2N=C3/C(=C\c4ccco4)CCCC3C2c2ccco2)n[nH]1 (stereo not given)	5	-1	-2
CCOC(=O)[C@]12CCC=C1N(Cc1ccccc1)C(=O)[C@H](CC(=O)NCc1ccc(C)o1)C2	36	1	6
Cc1cc(N2CCN(C(C(=O)NC3CCCC3)c3ccco3)CC2)c2ccccc2n1 (stereo not given)	-1	1	3
COCCCNC(=O)C[C@@H]1C[C@@]2(C(=O)OC)CC(C)(C)CC=C2N(Cc2ccco2)C1=O	4	-3	0
O=C(O)c1ccc(C=NN=Cc2ccco2)cc1	-3	-1	5
Cc1cccc(NC(=O)CN(CC2CCCO2)C(=O)c2cc3ccccc3o2)c1C (stereo not given)	-30	-6	0
COC(=O)[C@@]12C[C@@H](CC(=O)N3CCN(C(=O)c4ccco4)CC3)C(=O)N(CCc3ccc(OC)c(OC)c3)C1=CCC(C)(C)C2	0	0	4
CCN(CC)CCCN1C(=O)C(=O)/C(=C(/O)c2c(C)nc3ccccn23)C1c1ccc(C)o1 (stereo not given)	-8	-2	0
COC(=O)[C@]12CCCCC=C1N(Cc1ccccc1)C(=O)[C@H](CC(=O)N1CCN(C(=O)c3ccco3)CC1)C2	-3	4	0
CCOC(=O)[C@]12CCC=C1N(Cc1ccco1)C(=O)[C@H](CC(=O)N1CCCC1)C2	-3	-1	0
CCOC(=O)[C@]12CCC=C1N(Cc1ccco1)C(=O)[C@H](CC(=O)NCc1ccc(OC)c(OC)c1)C2	13	1	0

Bioassay records as filed in PubChem.

The list is partial; count on the stated rates, not on these rows.
